StopGo RLuc – lowers the Renilla signal of an FMDV 2A StopGo reporter; HEK cells with a luciferase reporter of 2A StopGo recoding; Potency, µM (doses to about 57.5 µM), inactives show at the highest dose signal change, negative = less light; 0.32% of 120,000 active; AID 1745857; active means well fitted falling curve with a large enough effect; inconclusive means small, poorly fitted or top-dose-only effect; inactive means no such curve, though single readings can be large or run the other way; also: nearly all actives have a fitted effect of over 55% in size; overnight with compound
2A firefly – lowers the firefly signal of an FMDV 2A StopGo reporter; HEK cells with a luciferase reporter of 2A StopGo recoding; Potency, µM (series often up to 57.5 µM), without a hit: at the top dose signal change, negative = less light; 0.23% of 120,000 active; AID 1745856; active = well fitted falling curve with a large enough effect; inconclusive = small, poorly fitted or top-dose-only effect; inactive = no such curve, though single readings can be large or run the other way; also: nearly all actives have a fitted effect of over 60% in size; overnight with compound
Numbers without * were called inactive; ? = inconclusive; [ ] = remark or other dose. % is scaled to controls: 0 for no effect and ±100 for the full control effect; potency is read from the fitted curve at half-maximal effect.

Every second line gives: 2A firefly | StopGo RLuc
Cn1c(=O)[nH]c(=O)c2c1nc(N1CCOCC1)n2Cc1ccccc1
    -16% | -13%
CCCCOC(=O)c1ccc(NC(=O)COc2ccc3c(C)cc(=O)oc3c2)cc1
    14% | -5%
N#CC1=C(SCc2ccc(Cl)cc2)NC(=O)C(C#N)C12CCCC2 (stereo not given)
    ? | 10µM*
Cc1ccccc1C(=O)NNC(N)=S
    20% | 0%
CC(C)CC(NC(=O)C1CC1)C(=O)N(C)C (stereo not given)
    0% | 1%
O=S(=O)(c1ccc(Br)cc1)c1nnn2c1nc(NCc1cccs1)c1sccc12
    -24% | -8%
O=C(Cc1ccc(N2CCCC2=O)cc1)N1CCSCC1
    62%[activator] | 26%
CC(C)C(NC(=O)C(N)C(C)O)C(=O)O (stereo not given)
    5% | 2%
Cn1c(=O)c2c(nc(N3CCCCCC3)n2CC(=O)c2ccccc2)n(C)c1=O
    -1% | -6%
CCOC(=O)C1=C(C)OC(N)=C(C(=O)OCC)C12C(=O)Nc1ccccc12 (stereo not given)
    -9% | 3%
CCOc1ccc(C(=O)Nc2ncc(C)s2)cc1OC
    261%[activator] | 22%
COCCn1c(SC)nc2c1c(=O)[nH]c(=O)n2C
    -7% | -12%
COc1ccc2c3c1O[C@H]1[C@H](O)CC[C@H]4[C@@H](C2)N(C)CC[C@@]341
    -13%[22.9 µM] | -16%[114 µM]
Cc1cccc(CNC(=O)c2ccc3c(c2)N(C)CCS3)c1
    21% | 38%[activator]
Cc1nc(C(=O)Nc2nc(CC(=O)O)cs2)nn1-c1ccc(Cl)cc1
    1% | -6%
Cc1ccccc1Nc1c(-c2c[nH]c3ccccc23)nc2ccccn12
    80%[activator] | 4%
CCOC(=O)C1CCN(S(=O)(=O)c2csc(C(N)=O)c2)CC1
    2% | -7%
Cc1nn(CC(C)C)c2sc(C(=O)N3CCN(S(=O)(=O)c4ccc(F)c(Cl)c4)CC3)cc12
    -2% | 15%
CCOc1cc(/C=C(\C#N)C(=O)Nc2ccccc2C)ccc1OCc1cc(=O)n2nc(CC)sc2n1
    14% | -8%
Clc1ccc(Cl)c(Oc2ccc3nnnn3n2)c1
    20% | 0%
CC(C)(C)c1cc(CCC#N)cc(C(C)(C)C)c1O
    31%[activator] | 10%
CCc1cccc(C)c1NC(=O)CC1Oc2ccc(C)cc2NC1=O (stereo not given)
    -8% | -11%
COc1ccc(C)cc1-n1c(-c2ccc(Cl)cc2)cc2c1CC(C)(C)CC2=O
    -9% | -4%
COc1ccc(/C=C/c2nc3ccccc3c(=O)n2-c2ccc(C)cc2)cc1O
    -10% | -24%
Cc1ccc(S(=O)(=O)N2CCN(Cc3csc(C)n3)CC2)c(Br)c1
    -6% | 6%
CCCCn1c(=O)c2oc3ccccc3c2n(Cc2ccc(OC)cc2)c1=O
    26% | -12%
Cc1ccc(C2(O)CC(C)N(C)CC2C)c(C)c1 (stereo not given)
    -3% | 1%
CCOC(=O)c1cc(-c2ccco2)nc2c1c(C)nn2-c1ccccc1
    5% | -5%
O=C(O)C1C2CCC(CC2)C1C(=O)NCCCN1CCOCC1 (stereo not given)
    -10% | -4%
Cc1ccc(NC(=O)C2CCCN(S(=O)(=O)c3ccc4[nH]c(=O)ccc4c3)C2)cc1C (stereo not given)
    -13% | -6%
O=c1c2cccnc2n(Cc2cccc(F)c2)c(=O)n1Cc1ccc(F)cc1
    0% | 25%
Cc1oc2cc(OCC(=O)NCc3ccccc3F)ccc2c(=O)c1Oc1ccccc1
    ? | -28%
CC1(C)CCCC(C)(C#CCN2CCN(C(=O)c3ccccc3)CC2)O1 (stereo not given)
    15% | 28%
COC(=O)c1ccc(OCc2ccc(C(=O)O)o2)cc1
    ? | 3%
CCN1CCN(CCCNC(=O)c2cnn(-c3ccc(OC)cc3)c2C2CCN(C(=O)OC(C)(C)C)CC2)CC1
    -21% | 3%
COc1ccccc1NC(=O)Cn1c(=O)c2c(ncn2CC(C)C)n(CC(C)C)c1=O
    -19% | -10%
Cc1ccc(NC(=O)CSc2nc3ncccc3[nH]2)cc1F
    109%[activator] | 35%[activator]
O=C(Cn1c(NCc2ccccc2)nc2ccccc21)N1CCOCC1
    5% | 115%[activator]
O=C(CSc1ccc2c(c1)OCCCO2)Nc1ccccc1Cc1ccccc1
    11% | 30%
O=C(Nc1cccc(C(F)(F)F)c1)c1noc2c1CCCCC2
    160%[activator] | 43%[activator]
COc1cccc(NC(=O)N(Cc2cn(C)c3ccccc23)C2CCCCC2)c1
    0% | -12%
CCCNC(=O)C1CCC(Cn2c(=O)c3sccc3n(Cc3cccc(OC)c3)c2=O)CC1 (stereo not given)
    -8% | 1%
O/N=C/c1cc[n+](C/C=C\c2ccccc2)cc1
    -2% | 1%
COc1ccccc1CCNC(=O)Nc1cccc(CN2CCOC2=O)c1
    -6% | -12%
Cc1ccc(CNC(=O)NC(=O)C(F)(F)F)cc1
    0% | 40%[activator]
O=C(Nc1cc(C(F)(F)F)ccc1Cl)c1nn(-c2cccc(Cl)c2)ccc1=O
    -10% | -7%
CCc1ccccc1-n1c(SCC(=O)Nc2ccc(C)cc2)nc2n[nH]c(C)c2c1=N
    ? | -12%
Cc1cccc(-n2c(=O)c3c(c4cc(C)ccc4n3C)n(CC(=O)Nc3ccc(C)cc3C)c2=O)c1
    6% | 6%
COC(=O)c1cc2sccc2n1Cc1ccccc1
    0% | -10%
N#C/C(=C\c1ccc(-c2ccc(Cl)c(C(=O)O)c2)o1)c1nc2ccccc2[nH]1
    15% | 2%

(listing goes on)
Every second line gives: 2A firefly | StopGo RLuc
Cc1cc(Cl)nc2c(C)c(Cl)ccc12
    0% | 12%
Cc1nnc(N2CCN(c3cccc(C(F)(F)F)c3)CC2)c2c1nnn2Cc1ccccc1
    -20% | -3%
COc1cccc(NC(=O)CN(C)Cc2cc(=O)oc3c(C)c(O)ccc23)c1
    -6% | 9%
O=C(Nc1ccc2oc(-c3cccnc3)nc2c1)c1cccc(I)c1
    1% | -9%
COc1ccc(NC(=O)Cn2c(=O)n(CCc3ccccc3)c(=O)c3sc4ccccc4c32)cc1
    119%[activator] | 9%
Cc1ccc(/C=C2\CCc3ccccc3C2=O)o1
    48%[activator] | ?
CCN(CC)S(=O)(=O)c1cccc(NC(=O)COC(=O)c2nn(C)c(=O)c3ccccc23)c1
    -19% | -7%
CC(=O)N1CCN(C(=O)Cn2ccc3ccccc32)CC1
    9% | -3%
Cc1cccc(CS(=O)Cc2cccc(C(F)(F)F)c2)c1 (stereo not given)
    22% | 14%
Cc1ccc(NC(=O)CSc2ncnc3ccccc23)c(Cl)c1
    0% | -4%
O=C(COC(=O)c1cc(=O)c2ccccc2o1)c1ccc(OC(F)F)cc1
    -5% | -10%
CCOc1ccc(NC(=O)CN2CCCN(Cc3cc(C)ccc3C)S2(=O)=O)cc1
    ? | ?
COc1ccc(NC(=O)COc2cc(C)cc(C)c2)c2cccnc12
    ? | ?
COC(=O)C1=CN(Cc2ccc(F)cc2)C=C(C(=O)OC)C1c1cccc(O)c1
    -8% | 10%
C[C@@H]1O[C@@H](O[C@H]2C[C@@H](O)[C@]3(CO)[C@H]4[C@H](O)C[C@]5(C)[C@@H](C6=CC(=O)OC6)CC[C@]5(O)[C@@H]4CC[C@]3(O)C2)[C@H](O)[C@H](O)[C@H]1O
    -69%[11.5 µM] | -76%
O=C(CSCc1cnn(-c2ccccc2)c1-n1cccc1)NCc1ccc(Cl)cc1
    -3% | 2%
Cc1oc2ncn(CC(C)C)c(=O)c2c1C(=O)Nc1cccc(C(F)(F)F)c1
    -4% | -4%
Cc1cc(C(C)(C)C)cc(C)c1CCNC(=O)c1n[nH]c(=O)c2ccccc12
    -10% | -9%
Nc1nc(SCC(=O)Nc2cccc(C(F)(F)F)c2)n[nH]1
    1% | -8%
Cc1c(Cl)cccc1NC(=O)N1Cc2cccn2-c2ccccc21
    3% | 25%
COC(=O)C1CN(Cc2cn(Cc3ccc(Cl)cc3)nn2)CCS(=O)(=O)N1Cc1ccccc1 (stereo not given)
    -5% | 26%
COC(=O)c1ccc(CN(C)C(=O)CCc2ncc(-c3ccccc3F)o2)cc1
    53%[activator] | 11%
CCOC(=O)COc1ccc2c(C)c(CCN(CC)CC)c(=O)oc2c1Cl
    -17% | -13%
Cc1ccc2c(c1)cc(C(=O)NCc1cccs1)n2C
    47%[activator] | -18%
CCn1c2ccccc2c2nnc(SCCN3CCCCC3)nc21
    -18% | -12%
Cc1cccc(-c2noc(CN(C(=O)c3ccccc3Cl)C(C)C)n2)c1
    -12% | 2%
O=C(/C(Cl)=C\Nc1ccc(SC(F)F)cc1)C(F)(F)F
    8% | 52%[activator]
c1cc2c(c(N3CCNCC3)c1)OCCO2
    -24% | -16%
Cc1ccc(Cl)cc1N1CCN(C(=O)Cn2ncc3c([nH]c4ccccc43)c2=O)CC1
    -7% | -11%
CC(NC(=O)CN1CSCC1=O)c1ccc(F)cc1 (stereo not given)
    1% | -8%
Cc1cc(SCC(=O)NCC(C)C)nc2ccccc12
    -3% | -2%
Cc1cc(C)cc(Oc2cnn(-c3ccc(C(F)(F)F)cn3)c(=O)c2Cl)c1
    41%[activator] | 1%
COc1ccc(Cl)cc1NS(=O)(=O)c1cc(Br)cc2c1N(C(=O)C1CC1)CC2
    5% | 260%[activator]
O=C(c1ccco1)N(Cc1cccnc1)c1nc2c(F)cc(F)cc2s1
    -1% | -13%
O=C(/C=C/c1ccc(O)cc1)c1ccsc1
    133%[activator] | 45%[activator]
COc1ccc(CCNCc2c(C(=O)O)c(C)n(Cc3c(F)cccc3Cl)c2C)cc1OC
    -12% | 8%
CCN(CC)CCNC(=O)c1ccc(CN)cc1
    -9% | -4%
Cc1ccc(NC(=O)c2c(C)nn(-c3ccccc3)c2-n2cccc2)c(Cl)c1
    10% | -8%
COc1ccc(-c2nc(CSCC(=O)NC3CCCCC3)co2)cc1
    -27% | ?
C[C@H](NC(=O)[C@H](C)NC(=O)C1CC(=O)N(c2ccc(F)cc2)C1)C(=O)O (stereo not given in full)
    0% | -7%
CN(CC(=O)NC(=O)NC1CCCC1)CC(=O)Nc1ccc(Cl)c(C(F)(F)F)c1
    0% | -1%
CC(C#N)Sc1nc(-c2cccs2)cc(C(F)(F)F)c1C#N (stereo not given)
    -8% | 1%
Cc1ccc(CNC(=O)Nc2c(NCc3ccccc3)c3ccccc3oc2=O)cc1
    12% | -1%
CC(=O)NC(Nc1cccc(C(F)(F)F)c1)C(Cl)(Cl)Cl (stereo not given)
    0% | 12%
O=C(O)c1ccc2nc(-c3cc4cc(F)ccc4oc3=O)[nH]c2c1
    47%[activator] | -9%
CCCNC(=O)c1cnc2sc(N3CCCCC3)nn2c1=O
    0% | -3%
c1ccc(-c2nc(C34CC5CC(CC(C5)C3)C4)cs2)nc1
    0% | 0%[1.06 µM]
CCc1ccc(C(=O)C(C)OC(=O)Cc2n[nH]c(=O)c3ccccc23)cc1 (stereo not given)
    -23% | -23%
CCNC(=O)c1cc(-c2ccccc2)nc2ccccc12
    -2% | -6%
Cc1nc2nncn2c(NCc2ccc(F)cc2)c1C
    ? | 8.9µM*

The list goes on:
Every second line gives: 2A firefly | StopGo RLuc
O=C(Nc1ccc(Br)cc1F)C(NS(=O)(=O)c1cccc2nsnc12)c1ccccc1 (stereo not given)
    -3% | 81%[activator]
O=C(CN1CCCc2cc(F)ccc21)Nc1cccc2nsnc12
    -3% | -11%
COc1ccc(CC(=O)Nc2sc3c(c2C(=O)Nc2cccc(Cl)c2)CCCCC3)cc1
    -22% | ?
COc1ccc(N(C(=O)Cn2nnc3ccccc32)C(C(=O)NCc2ccccc2)c2ccc(F)cc2)cc1 (stereo not given)
    -15% | -2%
CCCCOC(=O)Nc1ccccc1N=C1CCC/C1=C\c1ccccc1
    0% | 16%
CC(C)Cn1nc(C(=O)OCC(N)=O)c2ccccc2c1=O
    45%[activator] | 27%
CCOc1ccccc1NC(=O)Nc1cc(C)c2nc(NC(C)=O)sc2c1
    19% | 15%
O=C(NCCNC(=O)C1CC1)c1cc2ccccc2[nH]1
    8% | -3%
O=S(=O)(NCc1nc2cccnc2n1Cc1ccccc1Cl)c1ccc(F)c(Cl)c1
    -8% | -6%
CCCCc1ccc(Nc2cc(C)nc(-n3nc(C)cc3C)n2)cc1
    ? | -6%
COc1ccc2c(c1)C(C)=CC(C)(C)N2C(=O)Nc1cccc(Cl)c1
    65%[activator] | 10%
N#Cc1nc(C2CC2)oc1N1CCN(C(=O)c2ccc(=O)[nH]c2)CC1
    2% | -9%
CC(=O)NCc1ccc(-c2csc(-c3ccc(C(C)C)cc3)n2)o1
    21% | 6%
COc1ccc(/C=C(\C#N)c2nc3ccccc3c(=O)[nH]2)cc1OC
    -24% | -15%

Grouped by structure, those above with a furan ring, fused or not (8)
Every second line gives: 2A firefly | StopGo RLuc
CCCCn1c(=O)c2oc3ccccc3c2n(Cc2ccc(OC)cc2)c1=O
    26% | -12%
CCOC(=O)c1cc(-c2ccco2)nc2c1c(C)nn2-c1ccccc1
    5% | -5%
COC(=O)c1ccc(OCc2ccc(C(=O)O)o2)cc1
    ? | 3%
N#C/C(=C\c1ccc(-c2ccc(Cl)c(C(=O)O)c2)o1)c1nc2ccccc2[nH]1
    15% | 2%
Cc1ccc(/C=C2\CCc3ccccc3C2=O)o1
    48%[activator] | ?
Cc1oc2ncn(CC(C)C)c(=O)c2c1C(=O)Nc1cccc(C(F)(F)F)c1
    -4% | -4%
O=C(c1ccco1)N(Cc1cccnc1)c1nc2c(F)cc(F)cc2s1
    -1% | -13%
CC(=O)NCc1ccc(-c2csc(-c3ccc(C(C)C)cc3)n2)o1
    21% | 6%
